Assay outcomes (PubChem)
PK Bst – modulators of Bacillus stearothermophilus pyruvate kinase; partly purified Bacillus stearothermophilus pyruvate kinase, luminescence ATP production; ribose 5-phosphate activator present at AC10; Potency, µM; AID 361; 51,000 compounds, 1.2% hits; in the data active means potency below about 11 µM; inconclusive means mostly about 12 µM to 25 µM; inactive means weaker than that;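 the screen sought inhibitors and activators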;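 also: potency is read from the fitted curve at half-maximal effect; scaled between full activation by ribose 5 phosphate and full inhibition by luteolin; about four in five hits inhibit and the cells do not say which; series up to 57 µM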
TsaE inh – inhibitors of E. coli YjeE (TsaE). P0AF67. purified YjeE, fluorescence polarisation of a bound ADP probe. Potency, µM. 71,000 compounds, 0.05% hits. AID 605; active = well fitted falling curve; inconclusive = weaker or top-dose-only fall, or a rising curve; inactive = flat or poorly fitted curve;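 also: top concentration of the series not given in the record; excess ADP was the control for the full effect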
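Purified YjeE (10 uM) with BODIPY Texas Red-labeled ADP probe (2 uM); compounds pin-transferred, 15 min at room temperature. Binding inhibition read as decreased fluorescence polarization; ADP titration as control.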
* marks the source's active call; other numbers are inactive results; i = inactive; ? = inconclusive; · = not tested or not shown. This is a subset (hit frequency here may not be typical).

SMILES | PK Bst | TsaE inh
COc1cc(C2C(C#N)=C(N)Oc3cc(C)oc(=O)c32)cc2c1OCO2 (stereo not drawn) | >57 | i
COC(=O)c1ccc(S(=O)(=O)N2CCCCCC2)cc1 | >57 | i
Cc1cccc(S(=O)(=O)c2c(N)n(/N=C/c3cccnc3)c3nc4ccccc4nc23)c1 | >57 | i
Clc1cccc(-c2nn3c(Cn4cnc5ccccc54)nnc3s2)c1 | >57 | i
COCCCN1C(=O)C(=O)/C(=C(/O)c2ccc(OC(C)C)c(C)c2)C1c1ccncc1 (stereo not drawn) | >57 | i
COCCNC(=O)C1c2cc(OC)c(OC)cc2C(=O)N(C)C1c1cccnc1 (stereo not drawn) | >57 | i
O=C(NC12CC3CC(CC(C3)C1)C2)c1cccnc1 | · | i
Cc1nc2cc(C(=O)OCC(=O)N(CC(C)C)C3CCS(=O)(=O)C3)ccc2n1-c1ccccc1 (stereo not drawn) | >57 | i
Cc1nccc2[nH]c(=O)c(C(=O)NC3CCCCC3C)cc12 (stereo not drawn) | >57 | i
COc1ccccc1NC(=O)c1oc2ccccc2c1NC(=O)c1cc(OC)c(OC)c(OC)c1 | >57 | i
O=C1CC(c2cccc(Cl)c2)Cc2nc(N3CCN(c4ccccc4)CC3)ncc21 (stereo not drawn) | >57 | i
CC(C)N1C(=O)c2ccc(C(=O)O)cc2C1=O | >57 | i
COCCNC(=O)C(c1ccc(Cl)cc1)N(C(=O)CCC(=O)Nc1ccccn1)C1CCCC1 (stereo not drawn) | >57 | i
CCN(CC)Cc1cc(Nc2ccnc3cc(Cl)ccc23)ccc1O | · | i
CC(C)N(Cc1nc(-c2ccc(Cl)cc2)no1)C(=O)CN(C)S(=O)(=O)c1ccc(Cl)cc1 | >57 | i
Cc1cc(C(=O)CSc2nc3ccc(Cl)cc3[nH]2)c(C)n1C | · | i
O=C(Nc1ccccc1)C1=C(N2CCOCC2)/C(=C/c2cccnc2)CC1 | >57 | i
CCCC(=O)NC1C2CC3CC(C2)CC1C3 (stereo not drawn) | >57 | i
Cc1ccc(NC(=O)CSc2nc3nc(C)cc(C)c3c(=O)[nH]2)cc1 | >57 | i
O=C(c1csc2c1CCCCC2)N1CCN(c2ncccn2)CC1 | i | i
CCn1c(CSc2nncn2-c2ccc(OC)cc2)nc2cc(S(=O)(=O)N(C)C)ccc21 | >57 | i
Cc1ccccc1S(=O)(=O)Cc1ccc(C(=O)NCc2cccnc2)o1 | >57 | i
CCCOc1cc(C)c(S(=O)(=O)NCCOC)cc1C | >57 | i
CCCOc1ccc(NC(=O)C2CC(=O)N3CCCN=C3S2)cc1 (stereo not drawn) | >57 | i
Cc1cc(NS(=O)(=O)c2ccccc2)n(-c2ccccc2)n1 | >57 | i

Additional compounds follow.
SMILES | PK Bst | TsaE inh
Cn1c(C(=O)N(Cc2ccccc2)Cc2ccccn2)cc2sccc21 | >57 | i
CS(=O)(=O)N1CCCC(C(=O)NCc2cccs2)C1 (stereo not drawn) | >57 | i
Cc1ccc(C(=O)OCC(=O)Nc2sc3c(c2C#N)CCCCC3)cc1NC(=O)c1ccco1 | >57 | i
COc1ccc(C(=O)N2CCCC(c3nc(-c4cccs4)no3)C2)cc1OC (stereo not drawn) | >57 | i
O=C(NC1CCCCNC1=O)c1ccc(Cl)cc1 (stereo not drawn) | >57 | i
COc1ccccc1-n1cnc2cc(C(=O)NCc3ccco3)ccc21 | >57 | i
O=C(c1cnccn1)N1CCC[C@@]2(CCN(C(c3ccccc3)c3ccccc3)C2)C1 | · | i
Cc1ccc(-c2cc(=O)[nH][nH]2)c(C)c1 | >57 | i
Cc1csc(C(C#N)C(=O)c2ccc(S(=O)(=O)N3CCCC3)cc2)n1 (stereo not drawn) | >57 | i
O=C1c2ccccc2C(Nc2ccc3c(c2)OCCO3)N1c1ccc(Cl)cn1 (stereo not drawn) | · | i
O=C(CC1CCCCC1)c1c(O)c2ccccc2oc1=O | >57 | i
CN1CCN(Cc2cc(=O)oc3cc4c(cc23)CCC4)CC1 | >57 | i
CCOC(=O)C1CCN(c2c(N(C)Cc3ccco3)c(=O)c2=O)CC1 | · | i
Cc1ccc(C)c(CSc2nnc(-c3cccnc3)o2)c1 | >57 | i
COC(=O)C1(CC(C)C)C=C2C(=C(c3ccccc3)C(=O)C2C)CN1 (stereo not drawn) | · | i
Cc1ccc2c(c1)C1OCCC1C1N2C(=O)C2C(C(=O)O)C3C=CC21O3 (stereo not drawn) | >57 | i
O=C(CSc1nnnn1C1CCCC1)Nc1ccc2c(c1)OCCO2 | >57 | i
COC(=O)C1CCN(C(=O)N2CCOCC2)CC1 | >57 | i
CCOC(=O)N1CCC(NC(=O)CCS(=O)(=O)c2ccc3c(c2)CCN3C(C)=O)CC1 | >57 | i
O=C(COC(=O)CNC(=O)C1CCCCC1)Nc1ccc(Cl)cn1 | >57 | i
Cc1cccc(C)c1NC(=O)C1(N(Cc2ccco2)C(=O)c2ccccn2)CCCC1 | >57 | i
COc1cc(OC)cc(C(=O)Nc2ncc3c(n2)CC(C)CC3=O)c1 (stereo not drawn) | >57 | i
CCN(CC(=O)Nc1c(C(=O)OC)[nH]c2ccc(C)cc12)c1ccc2c(c1)OCO2 | >57 | i
COc1ccc(C)cc1NC(=O)c1cc2ccccc2o1 | >57 | i
CC1=CC(C)(C)N2C(=O)C3(SCC(=O)N3c3ccc(O)cc3)c3cc(C)cc1c32 (stereo not drawn) | >57 | i

Record cards, as listed above. Order of values: PK Bst, TsaE inh
`COc1ccc(C)cc1NC(=O)c1cc2ccccc2o1` across the screens: >57, i
`CCOC(=O)N1CCC(NC(=O)CCS(=O)(=O)c2ccc3c(c2)CCN3C(C)=O)CC1` across the screens: >57, i

Later entries
SMILES | PK Bst | TsaE inh
Cc1nn(CC(O)Cn2cnc3c2c(=O)n(C)c(=O)n3C)c(C)c1Br (stereo not drawn) | >57 | i
Cn1c(=O)[nH]c(=O)c2c1nc(NCCCn1ccnc1)n2CCOc1ccccc1 | >57 | i
COc1ccc(-c2cn3c4c(sc3n2)CCCC4)cc1 | 0.541* | i
O=C(CN1CCOCC1)n1c2ccccc2c2ccccc21 | ? | i
c1csc(-c2nn3c(Cn4cnc5ccccc54)nnc3s2)c1 | >57 | i
Nn1nnc2ccccc21 | · | i
CC1CCN(Cc2nc3c(c(=O)n(C)c(=O)n3C)n2Cc2cccc3ccccc23)CC1 | · | i
C=CCN1C(=O)C2(/C(=C(\O)c3ccc4c(c3)OCCO4)C(=O)C(=O)N2CCCOC)c2ccccc21 (stereo not drawn) | >57 | i
CS(=O)(=O)N(CC(=O)N1CCN(c2cccc(Cl)c2)CC1)C1CCCCC1 | >57 | i
CC(NC(=O)c1ccccc1O)c1ccccc1 (stereo not drawn) | · | i
O=C(c1cccn2c(=O)c3cc(Cl)ccc3nc12)N1CCOCC1 | >57 | i
Cc1ccc(C(=O)N2CCC(C(N)=O)CC2)cc1C | >57 | i
CN(C)c1ccc(CN(C(=O)COc2ccc(F)cc2)C2CCS(=O)(=O)C2)cc1 (stereo not drawn) | >57 | i
COc1ccc(Cl)cc1NC(=O)c1ccco1 | >57 | i
O=C(NCc1ccco1)c1nn(-c2ccccc2)c(=O)c2ccccc12 | >57 | i
COc1ccc(S(=O)(=O)N(CCCN2CCCC2=O)Cc2cc3cc(C)c(C)cc3[nH]c2=O)cc1 | · | i
Cc1cc(C)n(-c2nc3ccccc3nc2N2CCN(C(=O)c3ccc(F)cc3)CC2)n1 | >57 | i
N#Cc1c2n(c3c(=O)n(Cc4ccccc4)cnc13)CCCC2 | >57 | i
CCCc1ccc(OCC(=O)O)cc1 | · | i
CC(C)NC(=O)N1CCC2(CC1)CCN(C(=O)c1cccn1C)CC2 | · | i
Cc1noc(C)c1COc1cccc(C(=O)Oc2ccc3c(c2)OCO3)c1 | >57 | i
O=C(CSc1nc2c(c(C(F)(F)F)n1)CCc1ccccc1-2)NCc1ccco1 | >57 | i
O=C(CSc1nnnn1-c1cccnc1)NCc1cccs1 | >57 | i
Cc1nc(-c2ccc(S(=O)(=O)N3CCCCCC3)cc2)cs1 | · | i
CC(C)Oc1ccc(CNC2CCOC(C)(C)C2)cc1 (stereo not drawn) | >57 | i

In the list so far, 12 contain a Cl atom:
SMILES | PK Bst | TsaE inh
Clc1cccc(-c2nn3c(Cn4cnc5ccccc54)nnc3s2)c1 | >57 | i
O=C1CC(c2cccc(Cl)c2)Cc2nc(N3CCN(c4ccccc4)CC3)ncc21 (stereo not drawn) | >57 | i
COCCNC(=O)C(c1ccc(Cl)cc1)N(C(=O)CCC(=O)Nc1ccccn1)C1CCCC1 (stereo not drawn) | >57 | i
CCN(CC)Cc1cc(Nc2ccnc3cc(Cl)ccc23)ccc1O | · | i
CC(C)N(Cc1nc(-c2ccc(Cl)cc2)no1)C(=O)CN(C)S(=O)(=O)c1ccc(Cl)cc1 | >57 | i
Cc1cc(C(=O)CSc2nc3ccc(Cl)cc3[nH]2)c(C)n1C | · | i
O=C(NC1CCCCNC1=O)c1ccc(Cl)cc1 (stereo not drawn) | >57 | i
O=C1c2ccccc2C(Nc2ccc3c(c2)OCCO3)N1c1ccc(Cl)cn1 (stereo not drawn) | · | i
O=C(COC(=O)CNC(=O)C1CCCCC1)Nc1ccc(Cl)cn1 | >57 | i
CS(=O)(=O)N(CC(=O)N1CCN(c2cccc(Cl)c2)CC1)C1CCCCC1 | >57 | i
O=C(c1cccn2c(=O)c3cc(Cl)ccc3nc12)N1CCOCC1 | >57 | i
COc1ccc(Cl)cc1NC(=O)c1ccco1 | >57 | i

Other structures follow:
SMILES | PK Bst | TsaE inh
CC12CCC(C(=O)NCC3CCCO3)(OC1=O)C2(C)C (stereo not drawn) | >57 | i
O=C(O)CSC1c2ccccc2C(=O)N1Cc1ccccc1 (stereo not drawn) | >57 | i
CCOc1ccc2ccccc2c1/C=N/n1cncn1 | · | i
Cc1csc(NC(=O)c2nc3nc(C)cc(C)n3n2)n1 | · | i
O=C(Nc1ccc(-c2nc3ccccc3[nH]2)cc1)c1ccco1 | 3.94* | i
NC(=O)c1c(N)sc(=S)n1CC1CCCO1 (stereo not drawn) | >57 | i
CCC(=O)Nc1c(C)nn(C(=O)CC)c1C | >57 | i
N#Cc1ccc(CN2CCCC3(CCN(C(=O)c4cccc(F)c4)CC3)C2)cc1 | · | i
CSc1nc2cc(S(=O)(=O)N3CCOCC3)ccc2s1 | >57 | i
Cc1cc(C)nc(SCc2nnc(SCC(=O)Nc3ccc(C)c(C)c3)n2Cc2ccco2)n1 | >57 | i
COc1ccc2[nH]c3c(N4CCN(Cc5ccc6c(c5)OCO6)CC4)ncnc3c2c1 | >11.4 | ·
CCN(c1ccccc1)c1cc(NC)[n+](C)c(C)n1 | · | i
CC(C)OC(=O)CSc1nnc(-c2ccncc2)n1N | >57 | i
CCCCCn1c(=NC(=O)c2ccco2)c(C(=O)OCC)cc2c(=O)n3ccccc3nc21 | >57 | i
CCOC(=O)C1=C(C)NC(C)=C(C(=O)OCC)C1 | >57 | i
COC(=O)c1ccc(C(NC(=O)OCc2ccccc2)/C(F)=C/[C@@H](C)C(=O)NCc2ccc(OC)c(OC)c2)cc1 (stereo partly drawn) | · | i
CCN(CC)CCn1c(-c2ccccc2)nc2c(NCCOC)nc(C)nc21 | · | i
CCOC(=O)C1=C(C)Nc2nc(SCC(=O)OC)nn2C1c1cc(F)cc(F)c1 (stereo not drawn) | >57 | i
CCOc1ccc(-c2nc(S(=O)(=O)c3ccccc3)c(NCc3cccnc3)o2)cc1 | >57 | i
Cn1ccnc1C(O)(c1nnc(-c2ccccc2)o1)C(F)(F)F (stereo not drawn) | >57 | i
CCCc1cc(=O)[nH]c(SCCOc2ccc(Cl)cc2)n1 | · | i
O=C(CN1C(=O)C2CC=CCC2C1=O)OCCN1C(=O)c2ccccc2C1=O (stereo not drawn) | >57 | i
Cc1ccc(S(=O)(=O)Oc2ccc(N=Nc3ccc(-c4ccc(N=Nc5c(O)ccc6cc(S(=O)(=O)O)cc(S(=O)(=O)O)c56)c(C)c4)cc3C)cc2)cc1 | · | i
COc1cc(CO)cc(-c2cc(CO)cc(OC)c2OC)c1OC | >57 | i
COC(=O)[C@@]1(Cc2ccccc2)[C@H]2c3cc(C(=O)N4CCCC4)n(C)c3C[C@H]2CN1C(=O)c1ccccc1 | · | i

(list continues)
SMILES | PK Bst | TsaE inh
CCOC(=O)c1cc2c(=O)n3ccccc3nc2n(Cc2ccc(Cl)cc2)c1=N | >57 | i
c1nc(N2CCC3(CC2)OCCO3)c2[nH]cnc2n1 | >57 | i
COc1ccc(Nc2nnc(Cc3ccccc3)c(=O)[nH]2)c(OC)c1 | >57 | i
COc1cc(C(=O)N2CCN(c3cc(Cl)ccc3Cl)CC2)cc(OC)c1OC | · | i
CCN(CC)S(=O)(=O)c1ccc(Br)c(OC)c1 | >57 | i
O=C(Oc1c(CN2CCOCC2)cc(Cl)c2cccnc12)c1ccc(F)cc1 | >57 | i
COc1ccc(CCNC(=O)c2ccc3nc(-c4ccco4)c(-c4ccco4)nc3c2)cc1OC | >57 | i
Cn1c(Cn2c(=O)sc3ccccc32)nnc1SCC(=O)NCc1ccco1 | · | i
COc1ccc(-c2nc3cnc(N4CCNCC4)nc3n(CCC#N)c2=O)cc1 | · | i
COc1cccc(CNc2ccc(N3CCCCC3)cc2)c1OC | >57 | i
CC1=Nn2c(nnc2-c2cc(-c3ccccc3)n[nH]2)SC1 | >57 | i
COc1ccc(NC(=O)CSc2nnc(CNc3ccc(F)cc3)o2)c(OC)c1 | >57 | i
Cc1c(C(=O)NCCCN2CCOCC2)sc2nc(-c3ccc(F)cc3)cn12 | ? | i
COc1cc(C2C(C(C)=O)=C(C)Nc3ncnn32)ccc1O (stereo not drawn) | >57 | i
CN(C)c1ccc(-c2nc(NCCc3cnc[nH]3)c3ccccc3n2)cc1 | · | i
CC(O)c1c(OCc2ccccc2)ncnc1OCc1ccccc1 (stereo not drawn) | · | i
